Source: PubChem BioAssay
TRPML1 ag: qHTS for Agonists of the Human Mucolipin Transient Receptor Potential 1 (TRPML1); Mucolipin-1 (Homo sapiens), Q9GZU1; TRPML1-expressing cells, Ca2+ dye fluorescence, FDSS; host cell line not named in the record; reference of the full effect not given here; activation, % (concentration not given with the values); 0.12% of 410,000 active; in the data active = activation above about 50%; inconclusive = about 30% to 50%; inactive = below about 30%; note: 0% is about no effect; the text of the record puts the active cut at 80%
Target sequence (Q9GZU1 whole entry, looked up): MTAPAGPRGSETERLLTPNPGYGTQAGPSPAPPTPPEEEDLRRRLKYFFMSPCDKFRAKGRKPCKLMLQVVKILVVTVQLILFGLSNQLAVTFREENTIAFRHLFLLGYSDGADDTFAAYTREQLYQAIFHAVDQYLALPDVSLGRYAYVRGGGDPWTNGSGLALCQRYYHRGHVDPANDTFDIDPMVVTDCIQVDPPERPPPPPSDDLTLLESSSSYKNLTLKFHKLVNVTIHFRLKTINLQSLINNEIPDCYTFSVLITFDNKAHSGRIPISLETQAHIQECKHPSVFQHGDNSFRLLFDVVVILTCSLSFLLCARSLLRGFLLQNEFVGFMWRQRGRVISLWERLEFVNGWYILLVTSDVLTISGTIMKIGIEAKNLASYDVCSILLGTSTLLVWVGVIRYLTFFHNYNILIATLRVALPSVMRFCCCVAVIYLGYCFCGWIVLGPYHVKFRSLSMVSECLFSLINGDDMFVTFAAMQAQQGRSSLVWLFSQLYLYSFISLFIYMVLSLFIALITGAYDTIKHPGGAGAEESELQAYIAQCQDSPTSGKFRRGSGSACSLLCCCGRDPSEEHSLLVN
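Calcium fluorescence on an FDSS kinetic reader gave the read-out. Tet-induced TRPML1-DL cells were plated overnight, dye-loaded (Ca8 with quencher, 45-90 min, room temperature, dark), then read 110 s after compound addition, and again 110 s after 4uM final 54-4 (EC80).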
D2 ag: Beta-Arrestin HTS for Positive Allosteric Modulators of the Human D2 Dopamine Receptor: Agonists; D(2) dopamine receptor (Homo sapiens), P14416; DiscoveRx PathHunter D2 beta-arrestin, luminescence, 90 min; 100% = 57 uM dopamine signal; activation, % (no concentration beside the values); 0.084% of 360,000 active; in the data active = activation above about 40%; inconclusive = about 15% to 40%; inactive = below about 15%; note: compound concentration not given in the record; the text of the record calls up to 30% inactive
Target sequence (P14416 whole entry, looked up): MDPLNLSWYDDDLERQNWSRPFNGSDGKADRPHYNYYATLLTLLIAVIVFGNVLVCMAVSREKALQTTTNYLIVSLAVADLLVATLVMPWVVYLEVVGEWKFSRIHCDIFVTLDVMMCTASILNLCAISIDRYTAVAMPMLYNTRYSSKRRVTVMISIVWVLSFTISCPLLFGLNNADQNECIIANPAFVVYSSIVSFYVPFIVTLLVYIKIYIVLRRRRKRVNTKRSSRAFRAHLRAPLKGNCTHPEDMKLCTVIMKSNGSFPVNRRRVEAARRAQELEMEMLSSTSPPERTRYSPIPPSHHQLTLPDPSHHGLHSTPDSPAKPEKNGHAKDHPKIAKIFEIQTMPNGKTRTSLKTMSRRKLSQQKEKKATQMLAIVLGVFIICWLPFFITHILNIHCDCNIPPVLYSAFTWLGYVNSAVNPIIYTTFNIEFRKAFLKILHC
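DiscoveRx PathHunter D2 beta-arrestin cells (2,100/well) attached overnight, then compound-stimulated 90 min at 37 C in HBSS/10 mM HEPES/0.1% Tween-20 buffer; beta-galactosidase complementation read by luminescence after 1 h at ambient temperature. Dopamine 57 uM final (EC100) as control.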
Six1-Eya2 blk: qHTS Assay for Inhibitors of the Six1/Eya2 Interaction; AlphaScreen GST-Six1/His-Eya2 binding, biochemical; hits give low values; control for the full effect not named in the record; activity change, % (test concentration not listed); Homeobox protein SIX1 (Homo sapiens) + Protein phosphatase EYA2 (Homo sapiens), …; 0.56% of 360,000 active; in the data active = activity change below about -65%; inconclusive = about -30% to -65%; inactive = above about -30%; note: % is set by controls: 0 for no effect and ±100 for the full control effect; compound concentration not given in the record
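Six1/Eya2 binding was read as AlphaScreen signal after compounds were pinned into GST-Six1 plus His-tagged Eya2 (5X stock 250/500 nM) in pH 8.0 Tris/NaCl/TCEP buffer, beads added, then incubated 1 h, 37 C, dark.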
PINK1 expr mod: A Quantitative High throughput Screen to Identify Chemical Modulators of PINK1 Expression | Potency, µM (top dose mostly 76.6 µM), for inactives: at the top dose activation (PINK1 increase), most hits filed as activators | PINK1 immunofluorescence, high-content cytometry, 24 h | AID 624263, 2012 | 0.2% of 410,000 active; active = well fitted activation curve with a large enough effect; inconclusive = small, poorly fitted or top-dose-only effect; inactive = flat fitted curve, though single readings scatter; cell line not stated here;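 note: potency is the fitted concentration of half-maximal effect; % of control where 0% means no effect; nearly all actives have a fitted effect of over 65% in size; a mitochondrial uncoupler was the plate control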
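PINK1 protein level read as immunofluorescence by microplate cytometer in a fixed, stained stable cell line after 24 h exposure to five compound concentrations, with CCCP as control.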
CtBP-E1A inh: qHTS Assay for Inhibitors of the CtBP/E1A Interaction; CtBP / adenovirus E1A interaction (AlphaScreen); AlphaScreen GST-E1A/His-CtBP binding, 1536-well; hits give low values; control for the full effect not named in the record; activity change, % (no concentration beside the values); 0.49% of 340,000 active; AID 651724, 2012; in the data active means activity change below about -65%; inconclusive means about -30% to -65%; inactive means above about -30%; note: % is set by controls: 0 for no effect and ±100 for the full control effect; compound concentration not given in the record
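In 5 uL wells, 23 nL compound meets equimolar GST-E1A and His-CtBP (5X stock 125 nM each) for 2 h, 37 °C. Beads (5X, 50 ug/mL) then 1 h, 37 °C, dark.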
D2 potentiator: Beta-Arrestin HTS for Positive Allosteric Modulators of the Human D2 Dopamine Receptor: Potentiators | D(2) dopamine receptor (Homo sapiens), P14416 | DiscoveRx D2 beta-arrestin cells, luminescence, 90 min; 100% = 57 uM dopamine signal | potentiation, % (test concentration not listed) | 0.23% of 360,000 active | AID 624464, 2012; active = potentiation of 50% or more; inconclusive = 30% to 50%; inactive = 30% or less;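 note: compound concentration not given in the record; tested on top of an EC20 dose of dopamine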
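D2 cells co-treated with compound plus 50 nM dopamine (EC20) for 90 min at 37 deg C to detect potentiation. Beta-arrestin recruitment was read as enzyme-fragment luminescence after 1 h at ambient temperature. Full response was set by 57 uM dopamine.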
* marks the source's active call; other numbers are inactive results; ? = inconclusive; . = no result given; & = joins results of further samples; [ ] = another dose, or the depositor's remark.

Every second line gives: TRPML1 ag, D2 ag, Six1-Eya2 blk, PINK1 expr mod, CtBP-E1A inh, D2 potentiator
- Cc1ccc2c(O)c(Cc3ccccc3)c(=O)[nH]c2n1
 : -0.6, -3.0, -4, ?, 8, -1
- CC1(C2CC(C(F)(F)F)n3nc(C(=O)O)cc3N2)CC1 (stereo not drawn)
 : 0.3, -4.6, 0, 1.6%, 4, -7
- Cc1ccc(S(=O)(=O)NCCNC(=O)CN2CCCC2)cc1
 : 0.0, -3.0, 2, 0.8%, -1, -6
- Cc1cc(C)n(CC(=O)c2cccc([N+](=O)[O-])c2)n1
 : -0.6, 0.7, -13, 0.4%, -12, -4
- C[C@H]1CN([C@@H](C)CO)C(=O)CCCn2cc(nn2)CO[C@@H]1CN(C)C(=O)Nc1ccc(C(C)(C)C)cc1
 : ., -0.9, -4, -0.2%, 0, .
- CCCCn1c(=O)n(CC(=O)Nc2ccc(C)c(Cl)c2)c(=O)c2c1ncn2Cc1ccco1
 : 0.0, -5.0, -10, 17%, 7, -12
- CCSc1nnc(NC(=O)CCC2CCCCC2)s1
 : 0.0, -4.8, 5, 1.6%, ., -18
- CN(C)/C=C(\C#N)C(=O)c1cccc(Oc2ccc(Br)cc2)c1
 : 1.2, -1.8, 0, 1.6%, 5, -6
- Cc1ccccc1OCCCCCn1ccnc1
 : -0.1, 0.1, -1, 4.9%, -5, 1
- O=C(OCc1nc2ccccc2s1)c1ccc(Br)o1
 : 2.1, -4.6, 4, 4.9%, 16, -6
- O=C(NCCCn1ccnc1)c1sc2cccc(F)c2c1Cl
 : 0.2, 4.0, -7, -0.5%[38.3 µM], -7, 1
- COc1ccc(C2=NOC(C(=O)Nc3cccc(O)c3)C2)cc1 (stereo not drawn)
 : -1.2, -1.3, -7, -0.9%, 9, -6
- CCN1CCN(Cc2ccc(OCc3ccccc3)c(OC)c2)CC1
 : 1.0, -2.4, 2, 3.2%[38.3 µM], 2, -23
- C/C(=N\OC(=O)c1ccc(F)cc1)c1sc(-c2ccc(Cl)cc2)nc1C
 : ., -6.3, 3, 1.0%, 2, 1
- CC1CCCN(S(=O)(=O)c2ccc(C(=O)Nc3sc4c(c3C(N)=O)CCN(C)C4)cc2)C1 (stereo not drawn)
 : 3.9, -0.9, 12, -0.4%, 5, -40

Remaining list, next part:
Every second line gives: TRPML1 ag, D2 ag, Six1-Eya2 blk, PINK1 expr mod, CtBP-E1A inh, D2 potentiator
- Cc1cccc2[nH]c(CN(C)Cc3nc(CC4CC4)no3)nc12
 : 1.7, -2.2, 5, 2.3%, -11, -4
- O=C1[C@H](Cc2ccccc2)NCCCC[C@H](c2ccc(Cl)cc2)N1Cc1ccc(Cl)cc1
 : 1.0&-0.5, -0.7, -9, 11%, ., -10
- OCc1ccccc1-c1ccc2nncn2c1
 : 0.2, -5.7, 8, 0.3%, 6, -7
- COc1ccc(/C=N/NC(=O)c2ccccc2)cc1CN1CCN(c2ccc(F)cc2)CC1
 : -1.3, -1.3, -1, 10%, -3, -16
- CC(=O)Nc1ccc(NC(=O)CSc2cn(CC(=O)N3CCOCC3)c3ccccc23)cc1
 : 0.2, -5.7, 26, 1.7%, ., -2
- CCOC(=O)c1ccc2nc(Nc3nc4ccc(F)cc4s3)sc2c1
 : 0.1, -2.1, 4, ?, 6, ?
- COc1ccc(OC)c(S(=O)(=O)NCc2cn3ccsc3n2)c1
 : 2.2, -4.2, 0, -1.0%, -12, -8
- O=C(NC1CCCCC1)c1cccc(S(=O)(=O)N2CCOCC2)c1
 : 0.0, -0.2, -3, -1.6%, 15, 1
- O=C(Cn1nc(C(F)(F)F)c2c1CCCC2)N1CCOCC1
 : 1.8, 3.4, 12, 2.0%, 6, -1
- Cn1c(SCc2cccc(Br)c2)nnc1-c1ccccn1
 : 1.7, 7.0, -2, 0.8%, -1, -5
- CN1CCN(C(=O)c2ccc(S(=O)(=O)N(C)c3ccccc3)cc2)CC1
 : -0.3, -0.7, -2, 1.3%, 2, -1
- CCN(CC(=O)N1CCOCC1)S(=O)(=O)c1ccc(Cl)cc1
 : -0.2, -1.0, 0, 0.6%, 4, -18
- CCc1nn(CC(=O)NCCCN2CCCC2=O)c(=O)c2cc3sccc3n12
 : 4.5, -1.9, 0, -1.2%, 0, -2
- Cc1ccc2cc(C#N)c(N3CCCN(C(=O)C4CCCO4)CC3)nc2c1 (stereo not drawn)
 : 0.5, 0.0, 17, ., 0, -6
- CCOc1ccc(CCNC(=O)c2ccc(OCc3c(C)noc3C)cc2)cc1OCC
 : 1.7, -2.3, -9, 13%, -1, -14

The list goes on.
Molecule | TRPML1 ag | D2 ag | Six1-Eya2 blk | PINK1 expr mod | CtBP-E1A inh | D2 potentiator
COc1ccc(NC(=O)c2ccccc2NC(=O)CN2CCCCCC2)cc1 | 1.4 | -4.1 | 2 | 0.5% | -1 | -4
Cc1ccc(NC(=O)c2ccc(Cl)cc2[N+](=O)[O-])nc1 | 1.0 | 3.7 | -22 | 7.4% | -14 | -1
CCC(=O)N1CCCC(C)(C(=O)Nc2ccc(OC(F)F)cc2)C1 (stereo not drawn) | -1.1 | -2.3 | 3 | 2.0% | -2 | -1
COc1ccc(C(=O)N(c2ccccc2)C2C=CS(=O)(=O)C2)cc1 (stereo not drawn) | 0.2 | -1.5 | 6 | 1.3%[38.3 µM] | 5 | 3
COC(=O)C1CCN(C(=O)c2ccc(SC)cc2OC)CC1 | -0.1 | -1.9 | 4 | -1.4% | 6 | 4
Cc1cc(=O)[nH]c(SCC(=O)N(CCC#N)c2ccccc2)c1C#N | 0.1 | -0.3 | 4 | 1.5% | 9 | -5
CCN(CC(=O)Nc1c(F)cccc1F)C(=O)c1ccc2c(c1)S(=O)(=O)N=C1CCCCCN12 | 0.5 | -0.5 | 0 | -1.2% | 1 | 0
Cc1ccc(Cn2nc(C)c(NC(=O)c3cc(-c4ccco4)on3)c2C)cc1 | 0.4 | -2.2 | 0 | -3.9%[38.3 µM] | 4 | -8
Cc1ccc2c(CN3CCOCC3)cc(=O)oc2c1C | . | 4.0 | 4 | 0.2% | 0 | 2
NS(=O)(=O)c1ccc(NC(=O)COC(=O)CCc2c[nH]c3ccccc23)cc1 | -0.3 | -2.5 | -7 | 0.9% | -6 | -4
COC(=O)CSc1nnc(-c2ccc(S(=O)(=O)NCc3ccccc3Cl)cc2)o1 | 1.5 | 2.7 | -1 | 4.1% | 2 | 29
CCc1noc(C)c1C(=O)OCC(=O)Nc1nc(-c2ccc(F)c(F)c2)cs1 | 0.7 | 9.3 | 6 | 22% | -8 | 2
O=C(CCC1CCCN(C(=O)c2ccc3c(c2)OCO3)C1)NCc1ccc(F)c(F)c1 (stereo not drawn) | 0.9 | -0.7 | 5 | -0.7% | -3 | 2
Cc1c(Cl)cccc1NC(=S)Nc1ccc2[nH]c(=O)[nH]c2c1 | . | 3.0 | -12 | -0.4% | 0 | -11
Cc1nn(Cc2ccc(F)cc2)c(Cl)c1/C=N/NC(=O)c1cccnc1 | -0.1 | 1.7 | -2 | -1.1% | . | -8
O=C(CN1CC(=O)Oc2ccccc21)OCC(=O)c1ccc(F)cc1 | 0.1 | 7.0 | -75* | 4.4% | ? | 12
CCCCCCCCC(c1nc2ccccc2[nH]1)N1CCN=C1c1cc2ccccc2[nH]1 (stereo not drawn) | -0.2 | -3.6 | -3 | -1.4% | -8 | -9
c1ccc(-c2cc(CSc3nc4ccccc4[nH]3)on2)cc1 | 1.3 | -0.1 | -4 | ? | -1 | -20
Cc1cccc(N(CC(=O)N=Nc2c(O)[nH]c3ccccc23)S(C)(=O)=O)c1C | -0.6 | -1.5 | -12 | 2.9%[38.3 µM] | -13 | -9
CNC(=S)Nc1sc2c(c1C(=O)OC)CCC2 | 1.3 | 7.9 | -2 | 0.9% | 5 | -3
O=C(Cn1cnc2ccccc2c1=O)NCCC(=O)N1CCN(c2ccccc2)CC1 | -0.8 | -0.5 | 2 | ? | 4 | 0
CC1CCCC(NC(=O)COC(=O)c2cc(=O)[nH]c3ccccc23)C1C (stereo not drawn) | 2.1 | 3.0 | 1 | 1.1% | -1 | -2
CCOC(=O)CSc1nc2c(sc(=S)n2Cc2ccco2)c(=O)n1-c1ccc(F)cc1 | 1.6 | -3.6 | -13 | 3.6%[38.3 µM] | -4 | -11
NC1=NC[C@@H](Cc2ccc(O)cc2)N1CCCCC1CCCCC1 | -0.5 | 0.8 | -2 | -1.1% | -4 | -7
COc1ccc(NC(=O)CN(Cc2ccco2)Cc2ccco2)cc1S(=O)(=O)N1CCCCC1 | 0.5 | 0.4 | -12 | -0.1% | -10 | 0

Compounds shown so far that contain bromine, in the order listed:
Molecule | TRPML1 ag | D2 ag | Six1-Eya2 blk | PINK1 expr mod | CtBP-E1A inh | D2 potentiator
CN(C)/C=C(\C#N)C(=O)c1cccc(Oc2ccc(Br)cc2)c1 | 1.2 | -1.8 | 0 | 1.6% | 5 | -6
O=C(OCc1nc2ccccc2s1)c1ccc(Br)o1 | 2.1 | -4.6 | 4 | 4.9% | 16 | -6
Cn1c(SCc2cccc(Br)c2)nnc1-c1ccccn1 | 1.7 | 7.0 | -2 | 0.8% | -1 | -5

(further entries)
Molecule | TRPML1 ag | D2 ag | Six1-Eya2 blk | PINK1 expr mod | CtBP-E1A inh | D2 potentiator
Cc1ccc(NC(=S)NC2CCCC2)cc1C | 1.3 | -1.0 | -5 | 2.0% | -1 | -16
CCO[C@H]1OC(C(=O)N2CCCCCCC2)=C[C@@H](c2csc3ccccc23)[C@@H]1CCCO | 1.2 | -1.8 | 0 | -0.9% | 4 | -13
COc1ccc(Cl)cc1-c1cc(C(=O)N[C@H](C)c2ccccc2)[nH]n1 | -0.4 | 4.2 | -4 | -0.3% | -4 | -15
Cc1cc(S(=O)(=O)Nc2noc3ccccc23)ccc1F | 0.5 | 3.9 | 6 | 1.1% | -18 | -16
COc1ccc(CN2CCS(=O)(=O)CC2)cc1OC | -0.1 | -5.8 | 2 | 2.4% | 17 | -2
CCN(c1ccccc1)S(=O)(=O)c1ccc(Cl)c(NC(=O)CSc2nncs2)c1 | 0.9 | 14 | -1 | 1.2% | 11 | -7
Fc1ccc(-c2nn(-c3ccccc3)cc2CNCc2ccccc2)cc1 | 1.4 | -0.2 | 10 | -0.6% | 12 | -13
O=C1NN(c2ccc(Cl)cc2)C(=O)/C1=C\c1ccc(-c2cccc(C(=O)O)c2)o1 | -0.5 | -3.1 | -8 | -0.4% | 2 | -12
CC1CCc2cc(F)ccc2N1C(=O)c1ccc2c(c1)OCO2 (stereo not drawn) | 2.7 | -3.2 | -2 | 0.0% | -6 | -18
O=C(c1ccccc1)C1C(=O)c2ccccc2C1=O | -0.4 | -6.8 | -1 | 24% | -14 | -7
COCCSc1nnc(NC(=O)C(C)(C)C)s1 | 0.1 | -3.4 | 0 | -1.0% | 2 | -8
O=C(OCCCN1CCCC1)C1(c2ccccc2)CCCC1 | -0.5 | 1.2 | -1 | -3.8%[38.3 µM] | 1 | -15
